High-throughput results (PubChem BioAssay)
T cruzi inh = blocks replication of Trypanosoma cruzi; T. cruzi beta-gal in NIH3T3, luminescence, 90 h; inhibition, % (no concentration beside the values); 300,000 tested, 1.4% active; AID 1885;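 active = mean inhibition across valid replicates above about 55%, limit read from the data; inconclusive = mean below that limit but half or more replicates reach it; inactive = mean below it, under half of replicates reach it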;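 also: signal also drops with host cell toxicity which is not excluded here; 0% = plate median of DMSO wells and 100% = zero luminescence signal; higher percent means less beta-gal luminescence so fewer parasites; stock transfer was 50 nL into about 50 µL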
Bfl-1 A1 inh = inhibitors of the anti-apoptotic protein A1, read as caspase activation; AID 2462; MEF A1-2A-BIM cells, Caspase-Glo 3/7 luminescence, 3 h; percent of clofoctol response, vehicle zero; 330,000 tested, 0.066% active; caspase activation, % (no concentration beside the values);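 active = over half of replicate activation scores above 10%, or exactly half above 10 with the replicate mean above 10; inconclusive = replicate mean below 10 yet half the replicates above 10; inactive = over half of replicates below 10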;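 also: wells of about 30 µL received 50 nL stock; many hits fall short of the cut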
Calb FLC = affects C. albicans growth with fluconazole | C. albicans CaCi-2 (fluconazole-resistant clinical isolate) + fluconazole, Alamar Blue growth, 48 h | growth inhibition, % (no concentration beside the values) | 300,000 tested, 0.57% active;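 active = most replicates above 75%; inconclusive = exactly half above 75%; inactive = most below 75%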;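 also: all wells also contain fluconazole at 8 µg/ml as a sub-toxic cotreatment; 0% = median of DMSO wells and 100% = median of geldanamycin control wells; wells of about 8 µL received 7.5 nL stock; the first replicate is given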
Beta cell apopt = beta cell apoptosis inhibition; INS-1E cytokine-induced death, ATP luminescence, 48 h; percent of positive-control rescue, neutral wells zero; protection from apoptosis, % (test concentration not listed); 300,000 tested, 0.8% active; AID 435005;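 active = all replicates at 75% or more, or half of them and the mean; inconclusive = half reach 75% but not the mean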;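 also: 0% = cytokine-treated negative control wells and 100% = positive control rescue; higher means more ATP so stronger rescue from cytokine killing; wells of about 40 µL received 100 nL stock; the first replicate is given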
Vif TR-FRET = inhibitors of Vif binding to APOBEC3G peptide, primary screen, biochemical, TR-FRET, GST-Vif 1-94, biotin-A3G peptide, dose response retest (AID 1117319) | TR-FRET GST-Vif / biotin-A3G peptide binding; higher % means a stronger effect; test concentration not given here; strong numbers were not always called active | inhibition, %, or IC50 in µM where a hit was titrated | 260,000 tested, 0.57% active;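 active = above the screen mean plus three standard deviations and confirmed in dose response; inconclusive = results disagree or hit not tested in dose response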;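 also: Vif residues 1-94 fused to GST binding biotinylated APOBEC3G peptide 110-148; 0% = full assay without inhibitor and 100% = GST in place of GST-Vif; retest series ran down from 100 µM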
RanGTP-Impb inh = disruptors of Ran-importin-beta complex formation – biochemical, FRET, CFP-Ran, YFP-importin-beta, homogeneous, primary screen. cell-free CFP-Ran/YFP-importin-beta FRET ratio. inhibition, % (no concentration beside the values). 300,000 tested, 1.1% active. AID 2216;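 active = most replicates above 15%; inconclusive = exactly half above 15%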;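 also: 0% = DMSO wells and 100% = Ran loaded with GDP instead of GTP; wells of about 40 µL received 100 nL stock; the first replicate is given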
AF4-AF9 inh = blocks AF4 peptide binding to human AF9. P42568. AlphaScreen, biotin-AF4 peptide binding to FLAG-AF9. inhibition, % at 10 µM. 350,000 tested, 0.47% active;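 active = every replicate reaching a set inhibition limit, whatever the replicate mean, cut at about 25% in these data; inconclusive = mean inhibition reaches that limit but some replicates miss it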;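 also: 0% = plate neutral control median and 100% = total signal loss; the record names both 10 and 1 µM as test concentration; the first replicate is given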
Target sequence (P42568 whole entry, looked up): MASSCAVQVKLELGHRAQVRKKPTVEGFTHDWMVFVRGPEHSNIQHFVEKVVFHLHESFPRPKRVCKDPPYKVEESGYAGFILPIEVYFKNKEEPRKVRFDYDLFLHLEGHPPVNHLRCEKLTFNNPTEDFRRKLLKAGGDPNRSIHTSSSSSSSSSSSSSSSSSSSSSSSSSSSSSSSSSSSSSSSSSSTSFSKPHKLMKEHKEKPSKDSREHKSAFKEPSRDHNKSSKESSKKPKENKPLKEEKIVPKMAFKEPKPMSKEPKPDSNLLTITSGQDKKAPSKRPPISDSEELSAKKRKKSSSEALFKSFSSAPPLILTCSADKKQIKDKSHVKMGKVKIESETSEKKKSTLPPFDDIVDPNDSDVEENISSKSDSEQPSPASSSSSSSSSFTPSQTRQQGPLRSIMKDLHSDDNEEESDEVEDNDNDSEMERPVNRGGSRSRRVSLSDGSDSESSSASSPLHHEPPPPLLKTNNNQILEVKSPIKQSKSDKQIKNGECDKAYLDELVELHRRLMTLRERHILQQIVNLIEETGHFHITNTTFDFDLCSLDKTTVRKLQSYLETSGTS
LANA-H2B inh = blocks KSHV LANA binding to histone H2A/H2B; Q9QR71; cell-free LANA-H2A/H2B peptide, fluorescence polarization; inhibition, % (concentration not given with the values); 320,000 tested, 0.6% active; AID 2629; in the data active = inhibition mostly above about 10%, no sharp cut-off; inactive = mostly below about 6.7%;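 also: stock transfer was 7.5 nL into about 10 µL; 0% = median of vehicle wells and 100% = median of positive control wells; one replicate is shown; the record names a cut of 25% in any replicate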
* marks the source's active call; other numbers are inactive results; ? = inconclusive; . = no result given. Compounds as they come. About 4.3% of those tested had a hit in this group.

SMILES	T cruzi inh	AF4-AF9 inh	RanGTP-Impb inh	Calb FLC	Vif TR-FRET	LANA-H2B inh	Beta cell apopt	Bfl-1 A1 inh
CCOC(=O)c1ccc(NC(=O)CN2C(=O)CSCC2=O)cc1	-19	-2.4	0.4	13	.	-9.2	-3	-0.2
COc1ccc(OC)c(CN2CCN(S(=O)(=O)c3ccccc3)CC2)c1	13	5.8	0.2	-18	.	-3.2	.	0.2
CCCCN(C)C(=O)C1CCCN(S(=O)(=O)c2ccc3c(c2)oc(=O)n3C)C1 (stereo not drawn)	11	2.0	1.6	3	.	0.1	4	0.1
O=C(c1ccc2nc(N3CCOCC3)sc2c1)N1CCCC1	1	0.5	3.3	-1	3%	-0.2	1	-3.7
COc1ccc(/C=N/n2c(SC)nnc2-c2ccccc2)cc1C	25	.	4.5	30	-5%	-4.6	9	-0.2
COc1cc(/C=C2\C(=N)N3N=C(S(C)(=O)=O)SC3=NC2=O)ccc1OCCOc1ccccc1C	-5	8.4	2.8	5	7%	0.5	9	0.6
Cc1ccc(C(=O)CSc2n[nH]c(-c3ccco3)n2)cc1C	11	.	5.0	-2	10%	0.1	-7	-0.3
COCc1[nH]nc2c1C1(C(=O)N(C)c3ccccc31)C(C#N)=C(N)O2 (stereo not drawn)	-9	.	0.6	-6	-1%	1.3	-5	-0.1
c1coc(C2OCC3(CO2)COC(c2ccco2)OC3)c1 (stereo not drawn)	-3	2.2	0.2	7	-5%	1.1	5	0.2
O=C(NCc1ccc2c(c1)OCO2)c1c(O)nc2sccn2c1=O	-5	-1.7	-0.1	13	.	.	-14	0.3

The list continues.
SMILES	T cruzi inh	AF4-AF9 inh	RanGTP-Impb inh	Calb FLC	Vif TR-FRET	LANA-H2B inh	Beta cell apopt	Bfl-1 A1 inh
Cc1c(C(C)(C)C)s/c(=N/S(=O)(=O)c2ccccc2)n1C	11	0.1	-1.8	0	1%	-1.7	-1	-0.9
O=S(=O)(NN=C1CCCCCC1)c1ccc(Cl)cc1	5	-0.4	2.9	5	7%	-0.2	1	-2.1
CC(C)(C)OC(=O)N1CCC(NC(=O)c2nc[nH]c2C(=O)NCC(=O)OCc2ccccc2)CC1	14	-4.1	0.3	-2	.	-2.1	1	0.4
Cc1ccc(-c2noc(CN3CCC(C(N)=O)CC3)n2)cc1	-7	.	-1.5	-1	14%	-0.7	0	0.9
CCCC(=O)Nc1cc(C)c(NC(=O)c2ccco2)cn1	-3	-4.1	3.3	-3	.	7.4	-2	0.1
C=CCn1c(SCc2c(C)noc2C)nc2sc3c(c2c1=O)CCC(C)C3 (stereo not drawn)	4	.	-2.8	1	0%	-1.4	22	1.0
O=S(=O)(Nc1ccncc1)c1cc(Cl)ccc1Cl	-3	-1.4	0.6	8	-12%	-0.1	-1	?
Cc1ccc(-n2ncc3c2CCCC3NC(=O)CCCN2CCCCC2=O)cc1C (stereo not drawn)	1	-2.2	-0.1	6	.	-0.8	0	0.2
Cc1cccc(OCC(=O)OC(C)CN2CCCCC2)c1 (stereo not drawn)	-11	6.2	5.3	-4	-3%	-5.0	-5	0.3
CNC(=S)N1CCc2ccccc2C1	1	.	3.9	2	2%	-4.7	-6	-0.1

(listing goes on)
SMILES	T cruzi inh	AF4-AF9 inh	RanGTP-Impb inh	Calb FLC	Vif TR-FRET	LANA-H2B inh	Beta cell apopt	Bfl-1 A1 inh
c1ccc2c(c1)NC1(CCCCCC1)n1c-2nc2ccccc21	-5	.	3.6	?	-6%	-0.5	1	-3.9
CCOc1ccc(-c2c(C(=O)N/N=C(\C)c3ccccc3OC)nnn2-c2nonc2N)cc1	15	-0.9	3.0	24	.	-5.2	1	2.2
CC(C)(C)N(C=C(Cl)Cl)C(=O)NC1CCCCC1	-6	.	0.2	-4	0%	-3.0	-7	-1.5
CCOc1cc(/C=N/NC(=O)c2ccc(CSc3nncn3C)cc2)ccc1OCC(=O)N1CCOCC1	2	-0.8	-4.6	3	7%	-3.2	-5	0.6
C=CCn1c(C)cc(C(=O)COC(=O)c2ccc(N)c([N+](=O)[O-])c2)c1C	6	8.8	-2.2	-5	10%	1.3	-1	-0.6
COc1ccc(C(=O)NCCCn2cccn2)cc1OC1CCN(C(C)=O)CC1	3	-1.2	0.9	7	.	.	.	.
Clc1nc2ccccc2cc1-c1nnn(-c2ccccc2)n1	-27	-5.3	3.8	6	.	-2.1	0	-4.0
CC(C)(C)C(=O)N1CCC(O)(CS(=O)(=O)Cc2ccc(Cl)cc2)CC1	-39	.	2.1	-10	7%	-2.5	.	0.9
CCOC(=O)c1c(N)c2cc([N+](=O)[O-])ccc2n1C	32	-1.8	?	0	-5%	-5.1	-3	0.5
CSCCC(NC(=O)C1CCC(C)CC1)C(=O)O (stereo not drawn)	-26	.	-1.6	1	-9%	-5.3	-2	-0.5

Other records
SMILES	T cruzi inh	AF4-AF9 inh	RanGTP-Impb inh	Calb FLC	Vif TR-FRET	LANA-H2B inh	Beta cell apopt	Bfl-1 A1 inh
Cc1cc(=O)n2nc(N3CCC(C(=O)NCc4ccccc4)CC3)sc2n1	5	0.5	4.0	-3	.	2.0	0	0.1
CCCNC(=O)c1ccc(N2CCC3(CC2)CC(c2cccc(Br)c2)=NO3)c(NC(=O)c2ccc(Br)cc2)c1	19	-11	-0.5	-4	.	1.0	10	-1.2
O=C(O)CCCN1C(=O)/C(=C/c2ccncc2)SC1=S	-13	2.8	0.5	34	1%	-0.8	-19	0.1
Cc1c(C(=O)Nc2ccc(C(F)(F)F)cc2)sc2ncn(CC(=O)N3CCN(c4ccccn4)CC3)c(=O)c12	4	0.4	7.7	1	.	0.5	.	1.3
CCOC(=O)CSc1ncnc2c1c(-c1ccccc1)cn2-c1ccc(OC)cc1	33	-3.3	-2.9	10	.	5.6	6	0.0
CCOC(=O)c1ccc(N2CCCCC2)c(NS(=O)(=O)c2ccc(C)cc2)c1	37	0.1	0.8	-2	.	-1.2	17	-0.1
CC(C)Cn1c(N)c(C(=O)COC(=O)Cc2cccc(C(F)(F)F)c2)c(=O)n(C)c1=O	1	1.1	1.3	-4	-9%	3.5	-2	0.7
Cc1ccc(Cl)cc1NC(=O)Cn1cc2c(n1)CCCC2	9	-1.1	8.2	-10	25%	-2.4	-3	0.4
Cc1ccc(N=Cc2c(O)n(C)c(=O)n(C)c2=O)nc1	1	.	-1.1	-1	5%	-1.0	.	-1.3
Cc1ccc(Cl)cc1-n1c(=O)cc(N2CCN(C(=O)c3ccco3)CC2)[nH]c1=O	-3	-9.4	32*	4	-3%	1.0	-1	0.1

(cont.)
SMILES	T cruzi inh	AF4-AF9 inh	RanGTP-Impb inh	Calb FLC	Vif TR-FRET	LANA-H2B inh	Beta cell apopt	Bfl-1 A1 inh
C=CCN(c1ccccc1)S(=O)(=O)c1cccc(C(=O)N2CCCC2)c1	-6	4.7	3.5	6	5%	2.1	-1	0.3
CNC(=O)C1CC(=O)N(CCCc2ccccc2)C(=Nc2ccccc2)S1 (stereo not drawn)	0	.	2.5	31	3%	1.9	-2	0.1
C=C(C)CNC(=S)N/N=C/C1=CCC2CC1C2(C)C (stereo not drawn)	7	.	1.4	-5	.	0.4	5	1.2
CC(=O)Nc1ccc(S(=O)(=O)NCc2nnnn2-c2ccc(F)cc2)cc1	-5	0.7	2.3	-10	4%	-0.3	.	0.5
CCc1ccc(-c2cc(C)no2)cc1S(=O)(=O)N1CCN(c2ccccc2OC)CC1	35	-1.0	-0.9	5	.	1.6	-3	-2.2
Cn1cccc1-c1nc2ccc(NC(=O)c3ccccc3)cc2[nH]1	-9	.	-0.4	-8	10%	14	10	0.0
CCN(c1cccc(C)c1)S(=O)(=O)c1cc2c3c(c1)CCN3C(=O)CC2	6	1.6	-3.4	13	5%	2.4	-3	0.2
CCOc1cc(/C=C2\C(=N)N3N=C(S(C)(=O)=O)SC3=NC2=O)ccc1OCCOc1cccc(OC)c1	12	9.4	12	13	-9%	1.7	5	0.6
CC1CCCN(C(=O)c2ccccc2OC2CCN(S(C)(=O)=O)CC2)C1 (stereo not drawn)	-2	-6.8	3.2	2	.	3.9	-5	0.9
Cc1sc2c(c1C)C(=O)NC(c1cccc(O)c1)N2 (stereo not drawn)	-21	.	4.1	-2	13%	0.9	-2	-4.8

Next section:
SMILES	T cruzi inh	AF4-AF9 inh	RanGTP-Impb inh	Calb FLC	Vif TR-FRET	LANA-H2B inh	Beta cell apopt	Bfl-1 A1 inh
O=C(CNC(=O)c1ccccc1Cl)Nc1ccncc1	.	1.7	.	.	.	-19	0	0.6
Cc1cccc(OCC(=O)NCc2ccc(F)cc2)c1	2	-4.9	-0.3	4	.	1.9	-4	-0.1
CCN(C(=O)COC(=O)c1cc(C)oc1C)c1c(N)n(Cc2ccccc2)c(=O)[nH]c1=O	.	2.5	.	.	-10%	-3.7	-1	0.0
CC(=O)c1ccc(Oc2nc(-c3cccnc3)nc3ccccc23)cc1	-3	-3.8	8.0	12	1%	-0.4	0	-0.2
Cc1cccc(OCc2nc(C)cc(=O)[nH]2)c1	2	.	0.3	-4	68%	.	.	.
C=CCC(NCc1ccco1)c1ccc(OC)c(OC)c1 (stereo not drawn)	-16	.	-2.8	-6	0%	-2.9	-2	-0.5
O=C(c1ccccc1-c1nc2ccccc2[nH]1)N1CCCCC1	.	.	.	.	-6%	2.6	-4	0.0
CC(=O)Cc1nsc(NC(=O)c2ccc(-c3cccc(Cl)c3)o2)n1	3	3.4	-4.7	1	-2%	2.7	2	-0.5
COc1ccc2[nH]c3c(c2c1)CCNC3C1CC=C(C)CC1 (stereo not drawn)	17	3.4	0.6	-3	.	-10	21	0.0
CCCCn1c(N)c(N(CCC(C)C)C(=O)CN2C(=O)C3CCCCC3C2=O)c(=O)[nH]c1=O (stereo not drawn)	-2	0.5	1.5	0	2%	-1.8	0	0.5

Next part.
SMILES	T cruzi inh	AF4-AF9 inh	RanGTP-Impb inh	Calb FLC	Vif TR-FRET	LANA-H2B inh	Beta cell apopt	Bfl-1 A1 inh
NC(=O)c1nc(-c2ccccc2)c(-c2ccccc2)[nH]c1=O	-6	-21	-0.5	-4	.	-4.1	-2	0.1
Cc1ccc(-n2c(C)cc(/C=N/Nc3ccc([N+](=O)[O-])cn3)c2C)cc1	14	.	0.2	-3	13%	-1.3	1	?
CC(=O)C1=C(O)C(=O)N(c2ccc(O)cc2)C1c1cccc(F)c1 (stereo not drawn)	-1	-1.2	3.8	5	1%	3.9	.	0.1
Cc1ccc(C(=O)Nc2nccc(-c3cccs3)n2)cc1	-12	.	0.6	-10	-2%	0.9	-7	-0.4
COc1ccc(C[C@H]2CN3C(=NC[C@@H]3Cc3ccc(O)cc3)N2C[C@H](C)NC(=O)c2ccc(C)c(Br)c2)cc1	20	.	-1.9	13	.	-2.4	-1	1.6
CC1CCN(C(C(=O)Nc2ccc(C(C)C)cc2)c2ccc3c(c2)OCO3)CC1 (stereo not drawn)	0	-2.9	4.8	-10	6%	2.7	0	-0.1
